Lassa entry inh: inhibitors of Lassa virus binding or cell entry. Lassa virus pseudotype entry inhibition, cell reporter; control for the full effect not named in the record. Potency, µM (titrated, usually from 37.9 µM), inactives show at the top dose activity change, negative = inhibition, hits mostly inhibitors. 300,000 compounds, 1.2% hits. AID 540256; active means well fitted inhibition curve with a large enough effect; inconclusive means small, poorly fitted or top-dose-only effect, or effect the other way; inactive means flat fitted curve, though single readings scatter; tested in HEK293 cells; also: % is scaled to controls: 0 for no effect and ±100 for the full control effect; nearly all actives have a fitted effect of over 50% in size; luciferase read-out
Cruzain inh noDet: blocks cruzain activity in detergent-free assay | P25779 | purified cruzain, Z-FR-AMC fluorescence, no detergent | Potency, µM, without a hit: max response, negative = inhibition, most hits filed as inhibitors | 200,000 compounds, 2.3% hits; active = well fitted curve in the direction sought with a large enough effect; inconclusive = small, poorly fitted or top-dose-only effect, or another doubt; inactive = no such curve, though single readings can be large; an effect the other way counts as inactive or inconclusive;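 also: plate controls were enzyme without inhibitor for no effect and buffer without enzyme for full effect; nearly all actives have a fitted effect of over 40% in size; top concentration of the series not given in the record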
Target sequence (P25779 123-467 limits assumed): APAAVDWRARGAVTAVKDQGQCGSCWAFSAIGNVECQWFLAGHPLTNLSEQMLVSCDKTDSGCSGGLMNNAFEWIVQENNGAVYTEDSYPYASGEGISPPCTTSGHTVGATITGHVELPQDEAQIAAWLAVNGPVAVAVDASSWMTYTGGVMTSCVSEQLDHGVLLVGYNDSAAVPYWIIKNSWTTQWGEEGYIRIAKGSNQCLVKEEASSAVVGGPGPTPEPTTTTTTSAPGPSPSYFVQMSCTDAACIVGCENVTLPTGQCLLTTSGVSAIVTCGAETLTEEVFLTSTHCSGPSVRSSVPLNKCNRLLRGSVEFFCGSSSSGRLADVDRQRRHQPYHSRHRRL
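Purified cruzain at 1.5 nM, pre-incubated 15 min with compound at room temperature in 100 mM sodium acetate pH 5.5, 5 mM DTT, 0.00005% Triton X-100. Reaction started with 2 uM Z-FR-AMC; AMC fluorescence increase over 60 s gives rate.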
RE007 growth inh: less growth of the S. pombe RE007 Vpr strain | 360,000 compounds, 0.21% hits | S. pombe RE007 Vpr strain, BacTiter-Glo ATP luminescence, 24 h; control for the full effect not named in the record | Potency, µM (doses to about 92.2 µM), for the others: at the top dose activity change, negative = less growth | AID 651644; active = well fitted falling curve with a large enough effect; inconclusive = small, poorly fitted or top-dose-only effect; inactive = no such curve, though single readings can be large or run the other way;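 also: % is scaled to controls: 0 for no effect and ±100 for the full control effect; nearly all actives have a fitted effect of over 50% in size; the assay follows cell death caused by Vpr and the record does not say whether a fall means rescue or toxicity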
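Fission yeast strain RE007, carrying one chromosomally integrated HIV-1 vpr copy, was seeded at OD 0.01 in PMG+AL medium with 23 nL pinned compound. After 24 h at 30 °C and 99% humidity, viability was read by BacTiter-Glo luminescence.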
StopGo reporter: FMDV 2A StopGo reporter, luciferase signal; human cells with a luciferase reporter of 2A StopGo recoding; control for the full effect not named in the record; Potency, µM (series often up to 57.9 µM), inactives show at the highest dose signal change, negative = less light; 410,000 compounds, 1.2% hits; AID 1159524; active = well fitted falling curve with a large enough effect; inconclusive = small, poorly fitted or top-dose-only effect; inactive = no such curve, though single readings can be large or run the other way; tested in HEK293T cells; also: % is scaled to controls: 0 for no effect and ±100 for the full control effect; nearly all actives have a fitted effect of over 45% in size; luciferase light after 4 h
NS1 inh: blocks influenza NS1 protein function; Potency, µM (top dose mostly 46.1 µM), for inactives: at the top dose activity, positive = more growth; S. cerevisiae slowed by influenza A NS1, growth recovery by OD600; 270,000 compounds, 0.4% hits; also: actives are rising curves; nearly all actives have a fitted effect of over 50% in size
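Compounds were scored for reversing the slow growth caused by influenza A NS1 in S. cerevisiae, measured by optical density at 600 nm. Assay medium contained 2% galactose at pH 6.0; NS1-free yeast of the same strain were the positive control.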
Marburg entry inh: inhibitors of Marburg virus binding or cell entry | Marburg virus pseudotyped entry inhibition, cell reporter; control for the full effect not named in the record; about a third of the inactives were read at about 46 µM | Potency, µM (titrated, usually from 37.8 µM), inactives show at the highest dose activity change, negative = inhibition, actives largely listed as inhibitors | 300,000 compounds, 1.8% hits | AID 540276; active = well fitted inhibition curve with a large enough effect; inconclusive = small, poorly fitted or top-dose-only effect, or effect the other way; inactive = flat fitted curve, though single readings scatter; tested in HEK293 cells; about a fifth of its hits are not listed in these tables; also: % is scaled to controls: 0 for no effect and ±100 for the full control effect; luciferase read-out
SARS PLpro yeast: inhibitors of SARS-CoV papain-like protease in yeast; S. cerevisiae expressing SARS-CoV PLpro, growth rescue; control for the full effect not named in the record; Potency, µM (top dose mostly 32.9 µM), for inactives: at the highest dose activity, positive = growth rescue; 330,000 compounds, 0.19% hits; AID 485353; also: 0% is about no effect; nearly all actives have a fitted effect of over 55% in size; growth read by luminescence after 48 h
Cruzain inh Det: inhibitors of Trypanosoma cruzi cruzain with detergent | purified cruzain, Z-FR-AMC fluorescence, 0.01% Triton | Potency, µM, inactives show max response, negative = inhibition, actives largely listed as inhibitors | 200,000 compounds, 0.43% hits | AID 1478; active = well fitted curve in the direction sought with a large enough effect; inconclusive = small, poorly fitted or top-dose-only effect, or another doubt; inactive = no such curve, though single readings can be large; an effect the other way counts as inactive or inconclusive;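 also: plate controls were neutral wells for no effect and buffer without enzyme for full effect; nearly all actives have a fitted effect of over 40% in size; top concentration of the series not given in the record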
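Enzyme 1.5 nM, Z-FR-AMC 2 uM, NaOAc 100 mM pH 5.5, DTT 5 mM, Triton X-100 0.01%; 15 min RT compound preincubation; kinetic ex360/em450, 60 s delta.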
Numbers without * were called inactive; [ ] = dose if it differs, or a comment. Unless noted, calls follow the shape of the dose curve; as a rule, active means well fitted rising curve with a large enough effect; inconclusive means small, poorly fitted or top-dose-only effect; inactive means no such curve, though single readings can be large or run the other way. Potency is read from the fitted curve at half-maximal effect.

Results for CC(Oc1ccccc1)C(=O)NN1Cc2ccccc2C1=N (stereo not drawn) ?
Lassa entry inh: -11%[46.1 µM]; RE007 growth inh: 69%; StopGo reporter: -20%; Marburg entry inh: 3%[46.1 µM]; SARS PLpro yeast: 0%

How did CCC(C)[C@H]1COCCS(=O)(=O)N1Cc1ccccc1 (stereo partly drawn) do in these assays?
RE007 growth inh: -8%; StopGo reporter: -7%; NS1 inh: -13%; SARS PLpro yeast: -3%

Results for COc1ccc(Cc2nc3ccc(C(=O)N(C)CCc4cnn(C)c4)cc3o2)cc1OC ?
Lassa entry inh: -15%; RE007 growth inh: 3%; StopGo reporter: inconclusive; NS1 inh: 0%; Marburg entry inh: -27%; SARS PLpro yeast: -10%

How did CN(Cc1ccccc1)C(=O)c1ccccc1NC(=O)C1=CSCCO1 do in these assays?
RE007 growth inh: 6%; StopGo reporter: 0%; NS1 inh: -7%; SARS PLpro yeast: -5%

Results for Cc1c(O)ccc(/C(Cc2ccc3ccccc3n2)=N\O)c1O ?
Lassa entry inh: inconclusive; Cruzain inh noDet: 0%; RE007 growth inh: -12%; StopGo reporter: 15%; NS1 inh: -5%; Marburg entry inh: -2%; SARS PLpro yeast: -2%; Cruzain inh Det: 1.3%

What do the screens show for `COc1cc(NC(=O)CCCl)cc(-n2cnnn2)c1`?
Lassa entry inh: -3%; RE007 growth inh: -12%; StopGo reporter: 13%; NS1 inh: 3%; Marburg entry inh: inconclusive; SARS PLpro yeast: 2%

How did Cc1ccc(Nc2c(-c3ccc(C)cc3)nc3cnccn23)cc1 do in these assays?
Lassa entry inh: -28%[46.1 µM]; Cruzain inh noDet: 6%; StopGo reporter: 0%; Marburg entry inh: inconclusive; Cruzain inh Det: -17%

What do the screens show for `C/C(=N\NC(=O)c1ccc2c(c1)OCO2)c1ccc(NS(C)(=O)=O)cc1`?
Lassa entry inh: -11%; RE007 growth inh: 12%; StopGo reporter: -1%; Marburg entry inh: 14%

Results for CN(CCCNC(=O)C1CCC(=O)N1Cc1ccccc1Cl)c1ccccc1 (stereo not drawn) ?
Lassa entry inh: inconclusive; Cruzain inh noDet: 4%; RE007 growth inh: -2%; StopGo reporter: -5%; NS1 inh: 14%; Marburg entry inh: inconclusive; SARS PLpro yeast: -4%; Cruzain inh Det: -2.7%

Results for COc1cccc(C(C(=O)NC2CCCCC2)N(C(=O)CNC(=O)c2ccco2)c2cccnc2)c1 (stereo not drawn) ?
Lassa entry inh: inconclusive; RE007 growth inh: -8%; StopGo reporter: -4%; NS1 inh: -10%; Marburg entry inh: inconclusive; SARS PLpro yeast: -3%

What do the screens show for `CCCCOC(=O)CSC(=S)N(C)Cc1cccs1`?
Lassa entry inh: inconclusive; Cruzain inh noDet: -5%; RE007 growth inh: -5%; StopGo reporter: -14%; NS1 inh: -6%; Marburg entry inh: 12%; SARS PLpro yeast: -15%; Cruzain inh Det: 4.1%

Results for COc1ccccc1NC(=O)COC(=O)/C=C/c1ccccc1[N+](=O)[O-] ?
Lassa entry inh: 6%; Cruzain inh noDet: 2%; RE007 growth inh: -20%; StopGo reporter: -8%; NS1 inh: -14%; Marburg entry inh: -3%; SARS PLpro yeast: -29%; Cruzain inh Det: -10.0%

Results for Cc1ccc(S(=O)(=O)N2CCN(C(=O)c3cccs3)CC2)c(C)c1 ?
Lassa entry inh: inconclusive; RE007 growth inh: 21%; StopGo reporter: -28%; Marburg entry inh: -15%[46.1 µM]; SARS PLpro yeast: -6%

How did Cc1ccccc1NC(=O)CSc1nc(=O)n(CCN2CCOCC2)c2c1CCC2 do in these assays?
Lassa entry inh: 12%[46.1 µM]; Cruzain inh noDet: 3%; StopGo reporter: -9%; Cruzain inh Det: -5.0%

Results for CCn1nnc(NC(=O)c2ccc(-c3ccc(Cl)cc3)o2)n1 ?
Lassa entry inh: -17%; Cruzain inh noDet: -15%; RE007 growth inh: 0%; StopGo reporter: 21%; NS1 inh: 0%; Marburg entry inh: 13%[46.1 µM]; SARS PLpro yeast: -11%; Cruzain inh Det: -8.9%

What do the screens show for `COC(=O)c1cccc(N=Cc2c(O)n(Cc3ccc(F)cc3)c(=O)[nH]c2=O)c1`?
Lassa entry inh: 3%[46.1 µM]; RE007 growth inh: -13%; StopGo reporter: -13%; NS1 inh: 8%; Marburg entry inh: 11%[46.1 µM]; SARS PLpro yeast: 0%

What do the screens show for `Cc1ccc(-n2ccnc(NCc3cccs3)c2=O)cc1C`?
Lassa entry inh: inconclusive; Cruzain inh noDet: 3%; StopGo reporter: -11%; Cruzain inh Det: -9.2%

How did CC(C)Oc1ccc(/C=N/NC(=O)C(CSCc2ccccc2)NC(=O)c2ccc([N+](=O)[O-])cc2)cc1 (stereo not drawn) do in these assays?
Lassa entry inh: inconclusive; Cruzain inh noDet: 20µM*; RE007 growth inh: 2%; StopGo reporter: -9%; NS1 inh: -10%; Marburg entry inh: -7%; SARS PLpro yeast: -8%; Cruzain inh Det: -2.9%

Results for CCCCNC(=O)CSc1nc2cc3c(cc2c(=O)n1CCCC(=O)NCc1ccc(OC)cc1)OCO3 ?
Lassa entry inh: -4%[46.1 µM]; Cruzain inh noDet: -1%; StopGo reporter: 2%; Cruzain inh Det: 1.8%

What do the screens show for `CC(=O)N1CCc2cc(Br)cc(S(=O)(=O)CCC(=O)N3CCN(c4cccc(C)c4C)CC3)c21`?
Lassa entry inh: -26%[46.1 µM]; Cruzain inh noDet: inconclusive; StopGo reporter: 0%; Marburg entry inh: 5%[46.1 µM]; Cruzain inh Det: -4.3%

How did Cc1cc(NC(=O)CN2C(=O)NC(C)(c3ccc(Cl)cc3)C2=O)no1 (stereo not drawn) do in these assays?
Lassa entry inh: -11%[46.1 µM]; RE007 growth inh: -1%; StopGo reporter: -19%; Marburg entry inh: 2%[46.1 µM]; SARS PLpro yeast: 3%

Results for O=C(CC1Nc2ccccc2NC1=O)Nc1ccc2c(c1)OCO2 (stereo not drawn) ?
Lassa entry inh: 14%; RE007 growth inh: -2%; StopGo reporter: 17%; Marburg entry inh: 19%[46.1 µM]; SARS PLpro yeast: 0%

What do the screens show for `NC(=O)c1c(NC(=O)Cc2ccccc2)sc2c1CCN(Cc1ccccc1)C2`?
RE007 growth inh: 9%; StopGo reporter: inconclusive; NS1 inh: -5%; SARS PLpro yeast: 1%

How did O=C(CSc1nc(Cc2ccccc2)nc2ccccc12)Nc1ccc2c(c1)OCCO2 do in these assays?
Lassa entry inh: -13%; Cruzain inh noDet: inconclusive; RE007 growth inh: 5%; StopGo reporter: -9%; NS1 inh: 1%; Marburg entry inh: inconclusive; SARS PLpro yeast: -4%; Cruzain inh Det: -0.5%

What do the screens show for `CCCCCn1c(=O)[nH]c2cc(C(=O)N3CCN(c4cc(Cl)ccc4C)CC3)ccc2c1=O`?
Lassa entry inh: 2%[46.1 µM]; Cruzain inh noDet: 3%; StopGo reporter: -19%; Marburg entry inh: -3%[46.1 µM]; Cruzain inh Det: 0.0%

Results for Cc1nc2ccc(NC(=O)C(F)(F)F)cc2o1 ?
Lassa entry inh: 8%; Cruzain inh noDet: -4%; RE007 growth inh: 56%; StopGo reporter: -4%; NS1 inh: 7%; Marburg entry inh: -18%; SARS PLpro yeast: -3%; Cruzain inh Det: 7.2%

Results for CN(C)CCCN(C(=O)c1ccc(S(=O)(=O)N2CCCCCC2)cc1)c1nc2c(F)cc(F)cc2s1 ?
Lassa entry inh: 3%; RE007 growth inh: 3%; StopGo reporter: -12%; Marburg entry inh: -27%; SARS PLpro yeast: -2%

Results for O=C1c2ccccc2C(=O)N1CCc1nc2ccccc2c(=O)n1CCCn1ccnc1 ?
Lassa entry inh: 3%; Cruzain inh noDet: 0%; RE007 growth inh: -11%; StopGo reporter: -24%; NS1 inh: -8%; Marburg entry inh: 0%; SARS PLpro yeast: 5%; Cruzain inh Det: 1.7%

What do the screens show for `COc1ccccc1-c1cc(C(F)(F)F)nc(N2CCCCC2)n1`?
Lassa entry inh: 23%; Cruzain inh noDet: -3%; RE007 growth inh: 10%; StopGo reporter: 9%; NS1 inh: 5%; Marburg entry inh: 11%; SARS PLpro yeast: -14%; Cruzain inh Det: -6.1%

How did O=C(OCCN=C1NS(=O)(=O)c2ccccc21)C1CC(=O)N(c2ccc(Cl)cc2)C1 (stereo not drawn) do in these assays?
Lassa entry inh: -7%; Cruzain inh noDet: 20%; RE007 growth inh: 12%; StopGo reporter: 19%; NS1 inh: -5%; Marburg entry inh: 5%; SARS PLpro yeast: 1%; Cruzain inh Det: 6.8%

What do the screens show for `O=C(Nc1ccc(Br)cc1)c1cccc(S(=O)(=O)N2CCc3ccccc32)c1`?
Lassa entry inh: inconclusive; Cruzain inh noDet: -17%; StopGo reporter: inconclusive; Cruzain inh Det: -2.2%

How did Cc1oc(-c2ccccc2F)nc1CS(=O)(=O)CC(=O)NCCCN1CCc2ccccc2C1 do in these assays?
Lassa entry inh: -1%; Cruzain inh noDet: 0%; RE007 growth inh: -1%; StopGo reporter: -25%; NS1 inh: 14%; Marburg entry inh: inconclusive; SARS PLpro yeast: -4%; Cruzain inh Det: -2.6%

How did CCN(CC)CCNC(=O)CCn1c(=O)c2cccn2c2cccnc21 do in these assays?
Lassa entry inh: 4%[46.1 µM]; Cruzain inh noDet: -20%; StopGo reporter: 0%; Cruzain inh Det: -5.1%

Results for O=C(CNS(=O)(=O)c1ccc(Br)s1)N1CCC(N2CCCCC2)CC1 ?
Lassa entry inh: 15%; Cruzain inh noDet: 6%; RE007 growth inh: -4%; StopGo reporter: -3%; NS1 inh: 3%; Marburg entry inh: 24%; SARS PLpro yeast: -1%; Cruzain inh Det: 5.0%

How did CC(C)(C)c1cc(-c2nc(N)nc(N)n2)cc(C(C)(C)C)c1 do in these assays?
Lassa entry inh: -13%; Cruzain inh noDet: 5%; RE007 growth inh: 10%; StopGo reporter: -22%; NS1 inh: -10%; Marburg entry inh: -10%; SARS PLpro yeast: 6%; Cruzain inh Det: -10%

What do the screens show for `O=c1cc(NCc2ccccc2)c2ccccc2o1`?
Lassa entry inh: -15%; Cruzain inh noDet: 0%; RE007 growth inh: 10%; StopGo reporter: -8%; NS1 inh: 9%; Marburg entry inh: 2%; SARS PLpro yeast: -2%; Cruzain inh Det: -1.3%

Source: PubChem BioAssay
